Screens: PubChem BioAssay, several laboratories
UCH37 DUB inh = inhibitors of human UCH37 deubiquitinase, primary screen, biochemical, Ub-AMC cleavage, fluorescence; purified proteasome/UCH37; actives 0.33% (n = 330,000); Ubiquitin carboxyl-terminal hydrolase isozyme L5 (Homo sapiens), Q9Y5K5; AID 588478, 2011; inhibition, % (test concentration not listed);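 active = mean of two replicates above 20%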;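 note: 0% = compound-free wells with enzyme and 100% = wells lacking proteasome; stock transfer was 100 nL into about 20 µL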
Target sequence (Q9Y5K5 whole entry, looked up): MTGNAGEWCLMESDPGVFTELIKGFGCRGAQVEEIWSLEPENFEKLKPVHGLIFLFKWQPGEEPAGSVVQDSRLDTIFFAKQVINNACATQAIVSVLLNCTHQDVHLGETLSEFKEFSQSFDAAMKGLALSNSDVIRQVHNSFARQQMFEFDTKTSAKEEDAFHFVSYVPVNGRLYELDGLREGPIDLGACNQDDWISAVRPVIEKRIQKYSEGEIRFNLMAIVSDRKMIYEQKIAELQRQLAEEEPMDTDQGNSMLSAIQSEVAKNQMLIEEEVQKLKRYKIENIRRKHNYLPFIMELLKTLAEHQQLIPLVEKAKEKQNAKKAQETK
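Assay system: Proteasome-bound UCH37. Buffer or medium: pH 7.4 Tris-HCl (50 mM) with ovalbumin, ATP-MgCl2, DTT. Incubation: 30 min preincubation with enzyme, 25 min cleavage at room temperature. Measured by: fluorescence, ex 355 nm, em 460 nm. Read-out basis: percent inhibition. Control set: wells without proteasome as full block, compound-free enzyme plus substrate as uninhibited.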
T cruzi repl = inhibitors of intracellular T. cruzi growth, primary screen, luminescence, NIH3T3 host cells | T. cruzi beta-gal in NIH3T3, 90 h | inhibition, % (concentration not given with the values) | actives 1.4% (n = 300,000) | AID 1885, 2009;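 active = mean inhibition across valid replicates above about 55%, limit read from the data; inconclusive = mean below that limit but half or more replicates reach it; inactive = mean below it, under half of replicates reach it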;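 note: signal also drops with host cell toxicity which is not excluded here; 0% = plate median of DMSO wells and 100% = zero luminescence signal; higher percent means less beta-gal luminescence so fewer parasites; stock transfer was 50 nL into about 50 µL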
rRNA inh HTS = reduced GFP signal of wild-type E. coli, primary screen, bacterial rRNA inhibitor project, GFP/RFP fluorescence, OD600, single point; actives 1.6% (n = 350,000); GFP signal change (wild-type ribosome), % (test concentration not listed); E. coli WT GFP vs humanized-ribosome RFP mutants, 24 h; hits give low values; DMSO median 0, no signal -100;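 active = significant combined selectivity score with lowered wild-type GFP, culture density cut under 30%, mutant RFP and density less affected; inactive = any of these conditions unmet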; note: one replicate is shown; some compounds called inactive have numbers as strong as hits
FGF22 binding = binders of human FGF22 protein, primary screen, FGF22 synaptogenesis inhibitor project, biophysical, thermal shift, single point. calls only at 9.99 µM. recombinant FGF22 thermal shift, SYPRO orange fluorescence; percent of sucrose octasulfate shift, DMSO zero. actives 1.5% (n = 340,000);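 active = melting point raised past a set limit in the mean and every replicate; inconclusive = no clear call; three in four hits are not shown here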
Target sequence (Q9HCT0 whole entry, looked up): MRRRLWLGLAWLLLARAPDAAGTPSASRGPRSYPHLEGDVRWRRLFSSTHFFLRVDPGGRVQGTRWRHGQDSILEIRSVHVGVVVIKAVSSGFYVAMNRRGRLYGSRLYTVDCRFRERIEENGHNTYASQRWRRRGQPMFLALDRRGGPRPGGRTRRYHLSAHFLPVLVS
MLL AF4-AF9 inh = inhibitors of AF4 peptide binding to AF9, primary screen, biochemical, AlphaScreen, biotin-AF4 peptide, FLAG-AF9, single point | actives 0.47% (n = 350,000) | inhibition, % at 10 µM | Protein AF-9 (Homo sapiens), P42568;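 active = every replicate reaching a set inhibition limit, whatever the replicate mean, cut at about 25% in these data; inconclusive = mean inhibition reaches that limit but some replicates miss it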;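 note: 0% = plate neutral control median and 100% = total signal loss; the record names both 10 and 1 µM as test concentration; the first replicate is given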
Target sequence (P42568 whole entry, looked up): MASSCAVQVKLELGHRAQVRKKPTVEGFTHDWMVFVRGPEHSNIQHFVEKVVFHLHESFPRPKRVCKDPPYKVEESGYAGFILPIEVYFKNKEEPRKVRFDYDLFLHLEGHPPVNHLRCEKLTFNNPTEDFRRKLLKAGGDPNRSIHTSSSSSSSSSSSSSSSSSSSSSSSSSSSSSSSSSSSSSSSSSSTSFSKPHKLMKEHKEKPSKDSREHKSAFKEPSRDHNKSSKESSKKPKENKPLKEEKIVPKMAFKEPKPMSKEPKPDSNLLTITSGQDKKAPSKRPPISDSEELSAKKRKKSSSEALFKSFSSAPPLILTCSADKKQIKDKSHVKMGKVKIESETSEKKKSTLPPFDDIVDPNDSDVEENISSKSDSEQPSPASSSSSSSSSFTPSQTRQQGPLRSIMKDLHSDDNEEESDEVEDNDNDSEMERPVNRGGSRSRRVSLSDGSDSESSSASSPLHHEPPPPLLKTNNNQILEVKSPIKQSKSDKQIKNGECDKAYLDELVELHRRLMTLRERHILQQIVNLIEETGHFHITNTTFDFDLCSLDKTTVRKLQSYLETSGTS
Bfl-1 A1 inh = caspase 3/7 activation in MEF A1-2A-BIM cells, primary screen, A1 inhibitor project, cell-based, luminescence, HTS; Caspase-Glo 3/7 luminescence, 3 h; percent of clofoctol response, vehicle zero; caspase activation, % (concentration not given with the values); actives 0.066% (n = 330,000); AID 2462, 2010;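 active = over half of replicate activation scores above 10%, or exactly half above 10 with the replicate mean above 10; inconclusive = replicate mean below 10 yet half the replicates above 10; inactive = over half of replicates below 10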;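 note: wells of about 30 µL received 50 nL stock; many hits fall short of the cut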
Ecoli growth = E. coli growth inhibition, primary screen, OD600; Escherichia coli growth, 23 h; hits give low values; OD600 absorbance (no concentration beside the values); actives 0.21% (n = 330,000);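 active = OD600 absorbance below the run mean of sample wells minus 3.6 SD, in any replicate, cut at about 0.56 in these data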;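 note: stock transfer was 300 nL into about 60 µL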
Beta apoptosis = inhibitors of cytokine-induced beta cell apoptosis, primary screen, luminescence; INS-1E cytokine-induced death, ATP luminescence, 48 h; percent of positive-control rescue, neutral wells zero; protection from apoptosis, % (test concentration not listed); actives 0.8% (n = 300,000); AID 435005, 2010;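 active = all replicates at 75% or more, or half of them and the mean; inconclusive = half reach 75% but not the mean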;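 note: 0% = cytokine-treated negative control wells and 100% = positive control rescue; higher means more ATP so stronger rescue from cytokine killing; wells of about 40 µL received 100 nL stock; the first replicate is given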
rRNA inh HTS OD600 = second read-out of rRNA inh HTS, no call of its own (marks repeat the call); OD600 change, %; measured here: OD600 growth;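 optical density of the mix in the first replicate; 0 = DMSO median and -100 = no signal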
rRNA inh HTS RFP = second read-out of rRNA inh HTS, no call of its own (marks repeat the call); RFP signal change, %; measured here: RFP humanized mutant strains;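 first replicate; 0 = DMSO median and -100 = no signal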
Numbers without * were called inactive; i = inactive; ? = inconclusive; nt = no result given. This is a subset; count on the stated rates, not on these rows.

smiles	UCH37 DUB inh	T cruzi repl	rRNA inh HTS	rRNA inh HTS OD600	rRNA inh HTS RFP	FGF22 binding	MLL AF4-AF9 inh	Bfl-1 A1 inh	Ecoli growth	Beta apoptosis
O=C1N[C@@H](Cc2ccccc2)COC(=O)[C@H](Cc2ccc(F)cc2)C/C=C\C[C@H]1CC(=O)N(CCO)Cc1ccccc1	0.2	nt	-19*	-13*	5.0*	i	-234	-0.1	0.7	-22
Cc1cccc(N2CCN(C(=O)c3ccncc3)CC2C)c1 (centres undefined)	1.3	-5	nt	nt	nt	nt	nt	1.0	0.71	nt
O=C(c1noc2c1CCCC2)N1CCCCC1	0.9	-23	16	9	-6.1	i	3.7	0.3	0.65	2
Cc1onc(-c2ccccc2Cl)c1C(=O)Nc1ccccc1	1.4	-10	nt	nt	nt	nt	nt	0.0	0.79	0
CCN1CCc2c(sc(NC(=S)NC(=O)c3ccco3)c2C(N)=O)C1	nt	5	18	5	9.6	i	-0.2	-0.1	nt	-4
CCOc1ccc(S(=O)(=O)N2CCCCC2)cc1NC(=O)CSCc1c(C)noc1C	0.9	7	-9	-10	1.7	i	-5.1	1.2	0.69	6
COc1cc(C(=O)NCC(=O)OCC(=O)c2cccc3ccccc23)cc(OC)c1OC	0.6	9	-2	5	5.2	i	-0.1	0.5	0.67	-6
COc1cc(OC)c(C(=O)OCC(=O)N2CC(=O)Nc3ccccc32)cc1OC	1.9	-4	10	2	4.1	i	-7.9	1.3	0.68	-2
O=C(Nc1ccccc1)C1=C[C@H](c2coc3ccccc3c2=O)C[C@H](OCc2ccc(CO)cc2)O1	5.0	13	-6	-10	20	i	0.6	0.0	nt	-3
CC(NC(=O)Nc1cccnc1)(C(F)(F)F)C(F)(F)F	1.6	3	nt	nt	nt	nt	nt	0.5	0.71	-1
CC(=O)OCC(=O)Nc1ccccc1OC(F)F	1.7	1	9	3	-1.0	i	-2.8	0.7	0.71	-1
S=C(Nc1ccc2c(c1)OCCO2)Nc1ccccc1Cl	0.5	nt	7	3	-3.3	i	3.7	-0.2	0.7	0
CN(C)c1ccc([N+](=O)[O-])cc1C(=O)NCC(c1ccco1)N(C)C (centres undefined)	8.7	-11	1	2	-4.5	i	-0.5	-0.3	0.72	3
CCOc1ccccc1NC(=O)NNS(=O)(=O)c1ccc([N+](=O)[O-])cc1	1.6	-12	0	0	1.1	i	-13	1.9	0.71	2
CCCc1nn(C)c2c(=O)[nH]c(-c3cc(S(=O)(=O)N(CCO)CCO)ccc3OCC)nc12	-1.0	1	-3	0	-5.0	i	1.4	-0.4	0.73	2
O=c1[nH]c2c(c(=O)n1Cc1ccccc1)CCC2	3.9	-12	nt	nt	nt	nt	nt	0.2	0.75	1
Cn1c(CCN2CCCCC2)nc2cc(NC(=O)C3CCCCC3)ccc21	2.5	3	nt	nt	nt	nt	nt	1.0	0.71	-9
CC(=O)c1ccc(NC(=O)CN2CCC(NC(=O)C3CCCCC3)CC2)cc1	2.1	-7	-2	-17	-0.4	i	-0.4	-0.3	0.66	4
Fc1cccc(NC(=S)NNc2ccccc2)c1	1.7	-17	9	8	2.3	i	8.8	?	0.65	-38
Cc1ccc(NC(=O)CS(=O)CC(=O)N(CC(=O)NC2CCCC2)c2ccc3c(c2)OCCO3)cc1 (centres undefined)	1.8	1	-1	-3	1.3	i	2.6	?	0.67	-2

A different layout for two compounds above.
CCN1CCc2c(sc(NC(=S)NC(=O)c3ccco3)c2C(N)=O)C1
  UCH37 DUB inh: nt; T cruzi repl: 5; rRNA inh HTS: 18; rRNA inh HTS OD600: 5; rRNA inh HTS RFP: 9.6; FGF22 binding: i; MLL AF4-AF9 inh: -0.2; Bfl-1 A1 inh: -0.1; Ecoli growth: nt; Beta apoptosis: -4
CCOc1ccc(S(=O)(=O)N2CCCCC2)cc1NC(=O)CSCc1c(C)noc1C
  UCH37 DUB inh: 0.9; T cruzi repl: 7; rRNA inh HTS: -9; rRNA inh HTS OD600: -10; rRNA inh HTS RFP: 1.7; FGF22 binding: i; MLL AF4-AF9 inh: -5.1; Bfl-1 A1 inh: 1.2; Ecoli growth: 0.69; Beta apoptosis: 6

Remaining list, next part.
smiles	UCH37 DUB inh	T cruzi repl	rRNA inh HTS	rRNA inh HTS OD600	rRNA inh HTS RFP	FGF22 binding	MLL AF4-AF9 inh	Bfl-1 A1 inh	Ecoli growth	Beta apoptosis
CCN(CC)CCc1c(C)[nH]c(C(=O)OCc2ccccc2)c1C	3.2	44	nt	nt	nt	nt	nt	0.5	0.67	3
CCOc1ccc(C(=O)NCC(=O)OCC(=O)NC2CCCC2)cc1	2.5	-17	3	-8	1.4	i	-0.5	-0.7	0.7	-5
O=C(Cn1nc(-c2ccccc2)ccc1=O)Nc1cccc(NC(=O)c2ccccn2)c1	-11	-4	-3	5	3.5	i	-2.3	-1.1	0.66	-8
Cc1cc(C)c(S(=O)(=O)N2CCN(C(=O)CCOc3ccccc3C)CC2)c(C)c1	5.9	nt	0	11	-2.7	i	-3.0	0.5	0.65	-5
Cc1cccc(C2=NN(c3ccc(Br)cc3)[C@@H](C(=O)N3CCOC3=O)[C@@H]2c2ccc(F)cc2)c1	-101	21	13	18	0.8	i	-9.8	1.2	nt	10
Cc1ccc(OCCOC(=O)c2c(-c3ccccc3)noc2C)cc1	2.8	7	-16	-18	-9.8	i	-9.6	0.3	0.7	6
CCCS(=O)(=O)N1CCCC(C(=O)NCCN(Cc2ccccc2)C(C)C)C1 (centres undefined)	1.9	9	nt	nt	nt	nt	nt	1.0	0.7	-5
CCC(Sc1nc(N)cc(N)n1)C(=O)O (centres undefined)	3.4	-3	nt	nt	nt	nt	nt	0.5	0.71	1
COc1ccc(NC2CCCN(C(=O)c3ccc4[nH]c(C)c(C)c4c3)C2)cc1 (centres undefined)	0.6	5	-2	-4	1.4	i	6.2	-0.2	0.67	-2
CNC(=O)CNC(=O)Nc1ccc(Cl)c(Cl)c1	5.3	-9	nt	nt	nt	nt	nt	0.6	0.68	-5
Cc1nn(-c2ccccc2)nc1C(=O)OCC(=O)N1CCC(C)CC1	0.1	nt	-9	-16	-2.3	i	-8.4	-1.4	0.68	-5
COc1ccc(C(=O)OC2CCCCC2CN(C)C)cc1 (centres undefined)	5.8	20	3	6	-3.2	i	-4.9	0.0	0.64	-1
O=C(NC(=O)N1CCCCCC1)c1ccc(Cl)cc1	-0.2	-4	7	12	2.0	i	1.0	-0.6	0.74	-4
COc1ccc(CCN(C(=O)C(F)(F)F)C(C(=O)NC2CCCCC2)c2ccc(C)s2)cc1 (centres undefined)	1.1	-8	21	16	3.4	i	-3.0	0.4	0.67	-3
S=c1nc[nH]c2c1[nH]c1ccccc12	11	-13	nt	nt	nt	nt	nt	0.0	0.78	7
CC(=O)Nc1ccc(OC/C=C(\C)Cl)cc1	2.0	-16	nt	nt	nt	nt	nt	0.1	0.7	nt
Cn1cnnc1SCC(=O)Nc1c(F)cc(F)cc1Br	0.4	5	nt	nt	nt	nt	nt	-0.2	0.69	-6
Cn1c(NC(=O)/C=C/c2c(F)cccc2Cl)cc(=O)n(C)c1=O	5.4	-16	5	6	2.9	i	0.2	1.5	nt	-10
O=C(Nc1ccn(Cc2c(F)c(F)cc(F)c2F)n1)c1ccc(COc2cc(Cl)ccc2Cl)o1	4.6	34	nt	nt	nt	nt	nt	0.0	0.73	-2
Cc1cccc(C)c1NC(=O)COC(=O)c1nonc1N	1.2	-14	nt	nt	nt	nt	nt	0.6	0.7	2
COC(=O)Cc1c(C)c2ccc(O)c(CN3CCCC(C)C3)c2oc1=O (centres undefined)	i	-4	nt	nt	nt	nt	nt	0.0	0.65	0
Cc1csc(NC(=O)CSc2nc(C(C)C)nc3ccccc23)n1	4.4	8	-5	-11	6.2	i	3.3	0.6	0.66	-5
COC(=O)c1ccc(C)c(NC(=O)COC(=O)C2CC3CCCC(C2)C3=O)c1 (centres undefined)	2.4	1	5	10	0.0	i	-17	-0.7	0.7	-4
O=C(Nc1scc(-c2ccccc2)c1C(=O)O)c1ccc(F)cc1	4.6	-17	-44	-73	-3.2	i	-1.2	-12	0.69	0
O=C(Cn1cc([N+](=O)[O-])cn1)NCc1ccccc1Cl	2.3	-16	1	8	1.2	i	-2.6	0.4	0.71	-10
COc1ccc(NC(=O)CS(=O)(=O)c2cccc(Cl)c2)cc1	2.0	-9	3	9	1.5	i	-1.3	0.5	0.71	2
COc1cc2[nH]c3c(N4CCN(c5ccc(Cl)cc5)CC4)ncnc3c2cc1OC	-38	39	nt	nt	nt	nt	nt	0.0	0.69	29
Cc1cc(NC(=O)COc2ccc3ccccc3c2)no1	-0.3	-13	2	7	-0.6	i	-0.9	-1.4	0.66	-6
O=C(Cc1n[nH]c(=O)c2ccccc12)NC(c1ccccc1)c1ccccc1	0.7	?	13	5	2.0	i	-1.0	0.0	0.71	-11
Cc1cc(C)c2oc(=O)cc(CN3CCOCC3)c2c1	2.1	3	nt	nt	nt	nt	nt	0.5	0.72	1
CC(=O)c1ccc(S(=O)(=O)Nc2ccc(C(=O)N3CCC3)cc2)cc1	1.1	nt	8	16	-0.3	i	-0.6	nt	0.69	nt
CN1C(=O)CCC(CCC(=O)O)(c2ccccc2O)C1=O (centres undefined)	1.5	7	4	3	-2.8	i	-1.0	0.2	0.67	-2
Cc1oc(-c2ccc(Cl)cc2)nc1CN1CCC(C(=O)NCC2CCCO2)CC1 (centres undefined)	4.2	20	2	8	1.5	i	-3.3	-0.8	0.7	0
O=C(Nc1ccc(S(=O)(=O)N2CCCC2)cc1)c1ccc(Br)o1	1.8	8	-6	4	-2.2	i	1.3	-0.7	0.65	7
OCC1(Cc2ccc(F)cc2)CCCN(CCCC(F)(F)F)C1 (centres undefined)	6.6	4	8	7	-0.9	i	-4.9	-0.5	0.72	-1
O=C1CC(C(=O)N2CCc3ccccc32)CN1c1ccccc1 (centres undefined)	-1.2	-7	5	-11	0.4	i	0.4	1.4	0.66	nt
O=C(NC1CCN(Cc2ccccc2)CC1)c1cn(-c2ccccc2)nc1-c1cccnc1	3.2	9	2	3	1.5	i	-18	-0.2	0.67	5
CCCCn1c(N)c(N(CC(C)C)C(=O)c2cc(-c3ccc(F)cc3)nc3ccccc23)c(=O)[nH]c1=O	-7.1	4	6	6	0.2	i	0.5	-0.1	0.65	3
